CBX7 AlphaScr: inhibitors of human CBX7 binding to H3K27me3 peptide. AlphaScreen His6-CBX7 / biotin-H3K27me3 peptide binding; active compounds read low. AID 1224903. O95931. actives 1.1% (n = 66,000). normalised signal (fraction of DMSO) (concentration not given with the values); in the data active = normalised signal below about 0.5;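 also: 100 nL library stock added to about 20 µL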
Target sequence (O95931 whole entry, looked up): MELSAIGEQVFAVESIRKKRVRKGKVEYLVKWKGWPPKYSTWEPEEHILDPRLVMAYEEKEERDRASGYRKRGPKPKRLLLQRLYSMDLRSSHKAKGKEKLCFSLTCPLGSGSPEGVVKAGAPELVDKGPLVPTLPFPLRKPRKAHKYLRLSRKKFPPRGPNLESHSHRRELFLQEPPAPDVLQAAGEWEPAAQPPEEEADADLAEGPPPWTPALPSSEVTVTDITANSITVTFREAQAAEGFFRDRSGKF
CBX7 AlphaScr z-score: second read-out of CBX7 AlphaScr, no call of its own (marks repeat the call); z-score; measured here: z-score of CBX7 signal; some inactives read as strong as hits; reference of the scale not given here;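 same signal on another scale; lower means less binding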
An asterisk follows results filed as active; & = joins results of further samples. Not all compounds are listed; rates above refer to the full screens.

SMILES	CBX7 AlphaScr	CBX7 AlphaScr z-score
O=C1CN(C(=O)C2CC2)C(c2ccc(F)cc2)c2cc(F)ccc2N1 (configuration not stated)	1	0.34
FC(F)(F)c1nnc2ccc(N3CCN(c4cccc(Cl)c4)CC3)nn12	1&0.95	0.55&-0.51
CCOC(=O)C1CCN(CCC(=O)Nc2nonc2C)CC1	1	0.47
Cc1ccc(N2C(=O)C(Oc3ccccc3)C2c2ccccc2Cl)cc1C (configuration not stated)	0.87	-1.4
COc1ccc(N(C)C(=O)Cc2c(C(=O)O)[nH]c3ccccc23)c(OC)c1	0.93	-1.5
CCN(CCNC(=O)C1CCCN(S(=O)(=O)c2cccs2)C1)c1ccccc1 (configuration not stated)	0.82	-2.2
CCCc1sc(Nc2ccccc2OC)nc1-c1ccccc1	0.84&0.98	-3.9&-0.82
Cc1cccc(CN2C(=O)c3ccccc3S(=O)(=O)c3ccc(C(=O)NCCN4CCCC4)cc32)c1	0.85	-1.6
N#Cc1c(-c2ccccc2)cc(-c2cccs2)[nH]c1=O	0.98	-0.4
CC(C(=O)Nc1nc(-c2ccccc2)cs1)N1C(=O)c2ccccc2C1=O (configuration not stated)	1.1	2.2
O=C1CCCC2=C1C(c1cccs1)CC(=O)N2c1ccccc1F (configuration not stated)	1.1	0.56
Cc1cccc(N2CCN(C(=O)C3CCN(c4nnc(-n5cccc5)s4)CC3)CC2C)c1 (configuration not stated)	0.99	-0.6
CCCCOc1ccc(C(C)NC(=O)CSCc2nc(-c3ccccc3C)oc2C)cc1 (configuration not stated)	0.57	-4.3
CCOc1ccc(CCNc2ccc3nncn3n2)cc1OCC	0.97	-0.91
C=CCn1c(C(C)NC(=O)c2ccc(OC)c(OC)c2)nc2ccccc21 (configuration not stated)	1.1	0.98
COc1ccccc1NC(=O)Nc1nnc(-c2ccccc2)o1	0.77	-6.1
CCc1ccc2nc(N3CCC(C(=O)NC(C)c4ccccc4)CC3)sc2c1 (configuration not stated)	1.3	0.65
CCn1c(SCc2nc3ccccc3c(=O)[nH]2)nnc1-c1ccncc1	1.3	2.1
CC(C)c1nnc(NC(=O)c2cc(Cl)cc(Cl)c2)s1	1.1	1.5
Nc1ccc(F)cc1-c1nc2ccccc2[nH]c1=O	1	0.032
COc1cc(Cl)c(C)cc1Nc1c2c(nc3ccccc13)CCC2	0.86	-4.1
O=C(CSc1nnc(CNC(=O)c2cccs2)o1)Nc1nccs1	0.78	-7.8
O=C(Nc1ccc(Cl)cc1)C1CCCN(c2nnc(-n3cccc3)s2)C1 (configuration not stated)	1	0.092
c1cn2c(NC3CCCC3)c(-c3ccc(N4CCOCC4)cc3)nc2cn1	1.3	2.6
C=CCNC(=O)c1oc2ccc(S(=O)(=O)N3CCCCCC3)cc2c1C	1.1	3
Following part
SMILES	CBX7 AlphaScr	CBX7 AlphaScr z-score
Cc1ccc(Nc2c(-c3cccs3)nc3ccc(C)cn23)cc1	0.94	-2.8
CC1=C(c2ccc(C)cc2)S(=O)(=O)N(CC(=O)O)C1=O	1	0.72
COc1ccc(-c2cc(CCCC(=O)NCCc3cc(OC)ccc3OC)no2)cc1	0.92	-1.5
Cc1ccc(NC(=O)C2CCN(S(=O)(=O)c3cccs3)CC2)cc1F	0.9	-1.8
Cc1cc(NC(=O)CSc2nnc(-c3ccccc3Cl)o2)no1	1.1	0.85
CCOc1cc2c(cc1OCC)C(c1cccc(OC)c1OC)CC(=O)N2 (configuration not stated)	1.1	0.59
COc1ccc(CNC(=O)CCc2nc3ccccc3n(Cc3cccc(Cl)c3)c2=O)cc1	1.1	1
CC(C)N(Cc1nc(-c2ccccc2)no1)C(=O)c1ccc2c(c1)OCO2	1.1	0.74
Cc1cc(=O)n2nc(N3CCC(C(=O)Nc4ccc(Br)c(C)c4)CC3)sc2n1	0.95	-0.45
COc1ccc(-c2ccc(=O)n(CC(=O)Nc3ccc(C)cc3C)n2)cc1	1	0.48
CCc1ccc(Nc2cc(C(=O)NCCN(CC)CC)c3ccccc3n2)cc1	1.3	7.6
CCC(=O)N1CCc2cc(S(=O)(=O)NC(Cc3ccccc3)C(=O)NC3CCCCC3)ccc21 (configuration not stated)	1.1	1
Fc1ccc(-c2cc(-c3nc(-c4ccc(C(F)(F)F)cc4)no3)c3ccccc3n2)cc1	1.1	0.15
CCOC(=O)c1c(-c2ccccc2)csc1NC(=O)C(C)Oc1ccc(F)cc1 (configuration not stated)	0.9	-1.1
CCCCNS(=O)(=O)c1ccc2nc(-c3cccnc3)cc(C(=O)NC(C)C)c2c1	0.93	-1.7
COc1cccc(-c2nn(C)c3sc(C(=O)Nc4cc(C)ccc4OC)cc23)c1	1.1	3.5
Cc1ccc(C(O)CN2C3=NCCCN3c3ccccc32)cc1 (configuration not stated)	0.99	-0.26
Cc1cc(C(=O)NCc2ccc(Cl)cc2)no1	1	0.77
COc1ccc(OC)c(CCNC(=O)c2cc3c(s2)-c2c(C)cccc2OC3)c1	1	0.83
COc1cccc(NC(=O)COc2ccc(C(C)(C)C)cc2)c1	0.94	-0.14
CCCCNC(=O)c1ccc2c(c1)N(Cc1ccc(F)cc1)C(=O)c1ccccc1S2(=O)=O	1.2	2.6
Cc1cccc2nc(-c3cccc(NC(=O)c4ccc(Cl)cc4)c3)cn12	1	0.17
CCCCOc1ccc(Nc2cc(C)nc3ccc(C(=O)OC)cc23)cc1	0.98	-0.23
O=C(Nc1nc2ccccc2n1CCOc1ccc(F)cc1)c1ccc(Cl)cc1	1.1	0.91
COc1cc2c(cc1OC)C(c1cccc(Cl)c1Cl)CC(=O)N2 (configuration not stated)	1.1	0.61
Other entries follow:
SMILES	CBX7 AlphaScr	CBX7 AlphaScr z-score
CC(=O)C12c3ccccc3C(c3ccccc31)C1C(=O)N(c3ccc(Br)cc3)C(=O)C12 (configuration not stated)	0.85	-3.4
COc1ccc(C2C(O)C(O)C(C)N2C)cc1OC (configuration not stated)	1.1	1
O=C(NCCCn1ccnc1)c1ccc(C#Cc2ccccc2)o1	0.94	-2.9
COCCNC(=O)CCn1c(=O)[nH]c2ccccc2c1=O	1.1	0.26
CCOc1cccc(C(=O)Nc2ccc(-c3nc4cc(C)cc(C)c4o3)cc2)c1	1	-0.026
COc1ccc(-c2noc(N(C)CC(=O)N3CCC(C)CC3)n2)cc1	1	1.2
COc1nccnc1NS(=O)(=O)c1ccc(NC(=O)c2ccccc2Br)cc1	1	-0.0031
CCOC(=O)c1cnc2ccccc2c1Nc1cccc(C(C)=O)c1	0.84	-1.7
COc1ccc(CC(=O)Nc2ccc3nc(-c4ccc(Cl)cc4)oc3c2)cc1	1	-0.045
COC(=O)c1c[nH]n2c(NC3CCCCC3)c(-c3cccs3)nc12	0.52	-0.54
Cc1ccn2c(Nc3ccccc3C)c(-c3cccs3)nc2c1	0.99	-0.14
CCCCN(C)CCNC(=O)c1cc(Nc2cc(C)cc(C)c2)nc2ccccc12	1.6	10
Cc1ccccc1C(=O)Nc1ccc2nc(N3CCOCC3)cc(C)c2c1	0.97	-0.7
CCOc1ccc(CCNC(=O)CN2C(=O)CSc3ncccc32)cc1	1	1.9
COc1ccc(CCC(=O)Nc2ccc3nc(N4CCCCC4)cc(C)c3c2)cc1	1.2	4.6
Cn1c(C(=O)N2CCC(C(=O)N3CCC(Cc4ccccc4)CC3)CC2)cc2sccc21	0.9	-1.8
CCOC(=O)c1c(-c2ccccc2)csc1NC(=O)CCN1CCN(C)CC1	0.96	-1.6
COCCNS(=O)(=O)c1ccc2[nH]c(=O)[nH]c2c1	1	0.15
COc1ccccc1Nc1cc(C(=O)NCCCOC(C)C)c2ccccc2n1	1.1	0.12
O=C(NC1CCN(Cc2ccccc2)CC1)c1ccc(Cn2c(=O)[nH]c3ccccc3c2=O)cc1	1.1	0.3
CCOC(=O)c1cnc2ccc(OCC)cc2c1NC(C)CC (configuration not stated)	1.4	4.9
Cc1ccc(-c2noc(CN3CCN(c4ccc(F)cc4)CC3)n2)cc1	0.99	-0.28
Cc1cccc(Nc2nc(-c3ccc(F)c(C)c3)cs2)n1	0.84	-1.9
O=C(NCCc1ccccc1)c1ccccc1-c1nc2ccccc2[nH]1	0.94	-0.6
CC1CCCN(CCCNC(=O)CN2N=C(c3ccccc3)CCC2=O)C1 (configuration not stated)	1.1	1.1

A section from further up, for reference:
SMILES	CBX7 AlphaScr	CBX7 AlphaScr z-score
O=C1CN(C(=O)C2CC2)C(c2ccc(F)cc2)c2cc(F)ccc2N1 (configuration not stated)	1	0.34
FC(F)(F)c1nnc2ccc(N3CCN(c4cccc(Cl)c4)CC3)nn12	1&0.95	0.55&-0.51
CCOC(=O)C1CCN(CCC(=O)Nc2nonc2C)CC1	1	0.47

Record cards (already shown):
Shown for Cc1ccc(-c2noc(CN3CCN(c4ccc(F)cc4)CC3)n2)cc1 = CBX7 AlphaScr: 0.99; CBX7 AlphaScr z-score: -0.28
Shown for COc1ccc(CCC(=O)Nc2ccc3nc(N4CCCCC4)cc(C)c3c2)cc1 = CBX7 AlphaScr: 1.2; CBX7 AlphaScr z-score: 4.6
Shown for CCOc1cccc(C(=O)Nc2ccc(-c3nc4cc(C)cc(C)c4o3)cc2)c1 = CBX7 AlphaScr: 1; CBX7 AlphaScr z-score: -0.026

The results go on.
SMILES	CBX7 AlphaScr	CBX7 AlphaScr z-score
COc1ccc(CCNC(=O)c2cc(C3CC3)on2)cc1OC	0.97	-0.28
COc1ccccc1-n1c(=O)c2ccccc2c2ccccc2c1=O	0.99	-0.24
CCOC(=O)c1cnc2c(OC)cccc2c1Nc1c(F)cccc1F	0.82	-0.2
Cc1nc(N2CCCCC2C)c2c(C)c(C(=O)Nc3ccc(Br)cc3C)sc2n1 (configuration not stated)	1.1	1.8
CCc1cccc(NC(=O)C2CCN(S(=O)(=O)c3cnc[nH]3)CC2)c1	1	0.0085
COc1cc2[nH]c(=O)n(CCCC(=O)NCc3cccnc3)c(=O)c2cc1OC	1	0.013
CCOc1ccc(C(=O)Nc2ccc3oc(-c4ccncc4)nc3c2)cc1	0.99	-0.25
Cn1cc(C(=O)N2CCOCC2)c(=O)c2cc(S(=O)(=O)N3CCOCC3)ccc21	1.1	0.97
Cc1ccc(-c2noc(CNc3cc(C)cc(C)c3)n2)cc1	0.99	-0.1
COc1cc(S(=O)(=O)NCCc2c(C)[nH]c3ccccc23)c(C)cc1C	0.81	-2.9
Cc1cc(C)cc(NS(=O)(=O)c2ccc3[nH]cc(C(=O)N4CCc5ccccc54)c(=O)c3c2)c1	0.88	-0.54
COc1cc(-c2nc(Nc3ccc(F)c(Cl)c3)c3ccccc3n2)cc(OC)c1OC	0.96	-0.42
COc1ccc2oc(=O)c(-c3nnc(-c4cccc(Br)c4)o3)cc2c1	1.1	1.3
COc1cc2c(cc1OC)C(C(=O)N1CCOCC1)C1c3ccccc3CCN1C2=O (configuration not stated)	1	1.1
CC(=O)Nc1ccc(Nc2nnc(-c3ccc(O)cc3)c3ccccc23)cc1	0.74	-2.9
O=C1CC(c2ccc(F)cc2)c2cc3c(cc2N1)CCC3 (configuration not stated)	0.92	-0.34
COc1ccc(CNC(=O)CSc2nc3ccc(OC)cc3[nH]2)cc1	1	0.66
Cc1ccc(S(=O)(=O)NCc2ccc(C(=O)NCCc3cccc(C)c3)cc2)cc1	1.1	0.88
Cc1cccc(Cc2c(C)nc3c(C(=O)NC4CCCCC4)cnn3c2C)c1	0.95	-1.3
CCCNC(=O)c1ccc2c(c1)ncn2-c1ccccc1OC	0.99	-0.11
Cc1oc(-c2cccc(Cl)c2)nc1CS(=O)(=O)CC(=O)NCCc1ccccc1	1	0.12
Cn1c(C(=O)NCCCN2CCN(Cc3ccccc3)CC2)cc2sc(Cl)cc21	0.89	-1.7
O=C(Nc1ccc(Br)cc1)c1cnc2sccn2c1=O	1	0.3
Cc1nc2cc(-c3cccc(F)c3)nn2c(C)c1CCC(=O)N1CCN(c2ccccn2)CC1	1	0.31
Cc1ccccc1Nc1ncc(F)c(Nc2ccccc2C)n1	0.75	-1.2
Further results
SMILES	CBX7 AlphaScr	CBX7 AlphaScr z-score
Cc1ccc(NC(=O)c2nc(-c3ccc(C)cc3)oc2C)cc1	0.92	-0.82
COc1cc2[nH]c(=O)nc(NCc3ccccc3)c2cc1OC	0.89	-1.3
O=C(O)c1c[nH]c2ccc(S(=O)(=O)N3CCCCC3c3cccnc3)cc2c1=O (configuration not stated)	0.4*	-8.4*
COc1ccc(-c2nc3ccccc3n2CCC2CCCCC2)cc1OC	0.82	-4.6
Cc1ccccc1Cn1cc(NC(=O)c2cc(-c3cccc(Cl)c3)on2)cn1	1	0.15
Cc1ccccc1C1CC(c2ccc(Br)cc2)Nc2nnnn21 (configuration not stated)	0.95	-1.9
Cc1cc(Nc2ccc(F)cc2Cl)n2ncnc2n1	1	-0.067
O=C1CN(C(=O)C2CC2)C(c2ccccc2)c2cc(Br)ccc2N1 (configuration not stated)	0.93	-0.71
COc1ccc(C)cc1NS(=O)(=O)c1c(C)noc1C	0.98	-0.87
COC(=O)c1c(NC(=O)c2ccc(F)cc2)sc2c1CCCCC2	1.7	10
O=C(Cn1nc(-c2ccccc2)c2ccccc2c1=O)NCC1CCCO1 (configuration not stated)	0.92	-0.93
COc1ccc(CCNC(=O)Cn2ncc3ccsc3c2=O)cc1OC	0.98	-1
COCCN(CCOC)S(=O)(=O)c1ccc(C(=O)Nc2nc(-c3cc(C)ccc3C)cs2)cc1	0.86	-3.4

Arranged by length of the SMILES (rising): part of the list above
SMILES	CBX7 AlphaScr	CBX7 AlphaScr z-score
COC(=O)c1c(NC(=O)c2ccc(F)cc2)sc2c1CCCCC2	1.7	10
O=C1CN(C(=O)C2CC2)C(c2ccccc2)c2cc(Br)ccc2N1 (configuration not stated)	0.93	-0.71
O=C(O)c1c[nH]c2ccc(S(=O)(=O)N3CCCCC3c3cccnc3)cc2c1=O (configuration not stated)	0.4*	-8.4*

Screening data from PubChem.
